D2 ag: agonists of human D2 dopamine receptor (beta-arrestin); P14416; DiscoveRx PathHunter D2 beta-arrestin, luminescence, 90 min; 100% = 57 uM dopamine signal; activation, % (no concentration beside the values); actives 0.084% (n = 360,000); in the data active = activation above about 40%; inconclusive = about 15% to 40%; inactive = below about 15%; further: compound concentration not given in the record; the text of the record calls up to 30% inactive
Target sequence (P14416 whole entry, looked up): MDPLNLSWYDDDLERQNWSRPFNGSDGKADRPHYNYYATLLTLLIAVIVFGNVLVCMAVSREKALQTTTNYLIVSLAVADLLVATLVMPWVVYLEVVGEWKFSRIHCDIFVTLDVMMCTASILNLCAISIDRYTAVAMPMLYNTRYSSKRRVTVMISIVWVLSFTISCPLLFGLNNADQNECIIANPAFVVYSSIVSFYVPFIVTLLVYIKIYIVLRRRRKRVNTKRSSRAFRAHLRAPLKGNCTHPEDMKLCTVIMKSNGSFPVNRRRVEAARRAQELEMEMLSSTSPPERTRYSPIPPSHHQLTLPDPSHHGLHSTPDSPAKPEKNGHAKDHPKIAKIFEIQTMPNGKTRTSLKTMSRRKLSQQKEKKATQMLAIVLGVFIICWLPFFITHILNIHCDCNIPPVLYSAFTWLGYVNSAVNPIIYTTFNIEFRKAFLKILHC
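DiscoveRx PathHunter D2 beta-arrestin cells (2,100/well) attached overnight, then compound-stimulated 90 min at 37 C in HBSS/10 mM HEPES/0.1% Tween-20 buffer; beta-galactosidase complementation read by luminescence after 1 h at ambient temperature. Dopamine 57 uM final (EC100) as control.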
TRPML1 ag: activates the human TRPML1 channel | activation, % (test concentration not listed) | Q9GZU1 | TRPML1-expressing cells, Ca2+ dye fluorescence, FDSS; host cell line not named in the record; reference of the full effect not given here | actives 0.12% (n = 410,000); in the data active = activation above about 50%; inconclusive = about 30% to 50%; inactive = below about 30%; further: 0% is about no effect; the text of the record puts the active cut at 80%
Target sequence (Q9GZU1 whole entry, looked up): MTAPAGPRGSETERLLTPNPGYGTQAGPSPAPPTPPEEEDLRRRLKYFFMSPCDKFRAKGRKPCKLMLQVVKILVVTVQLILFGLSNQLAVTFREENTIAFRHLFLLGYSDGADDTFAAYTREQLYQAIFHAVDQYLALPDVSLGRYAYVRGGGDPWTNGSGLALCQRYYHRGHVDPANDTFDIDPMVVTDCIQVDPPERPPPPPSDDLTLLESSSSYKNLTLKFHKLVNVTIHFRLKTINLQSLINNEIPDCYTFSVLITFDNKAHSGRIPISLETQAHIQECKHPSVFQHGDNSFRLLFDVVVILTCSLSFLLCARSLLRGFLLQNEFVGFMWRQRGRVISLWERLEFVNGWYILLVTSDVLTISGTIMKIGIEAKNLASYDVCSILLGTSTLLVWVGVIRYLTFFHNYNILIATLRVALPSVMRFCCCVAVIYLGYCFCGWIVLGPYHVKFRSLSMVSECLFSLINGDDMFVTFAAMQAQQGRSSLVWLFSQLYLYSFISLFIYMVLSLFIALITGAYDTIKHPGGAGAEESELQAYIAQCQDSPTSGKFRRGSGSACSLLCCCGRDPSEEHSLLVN
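Tet-induced TRPML1-DL cells, 1,500 per well, cultured overnight, were loaded with a no-wash Ca2+ dye for 45–90 min. Calcium fluorescence was recorded on the FDSS for 110 s after compound addition, before the EC80 agonist (4 uM 54-4) was added.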
PINK1 modulator: changes PINK1 expression. PINK1 immunofluorescence, high-content cytometry, 24 h. Potency, µM (highest dose often 76.6 µM), without a hit: at the highest dose activation (PINK1 increase), hits mostly activators. actives 0.2% (n = 410,000). AID 624263; active = well fitted activation curve with a large enough effect; inconclusive = small, poorly fitted or top-dose-only effect; inactive = flat fitted curve, though single readings scatter; cell line not stated here;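 further: potency means the concentration at half of the fitted maximal effect; % of control where 0% means no effect; nearly all actives have a fitted effect of over 65% in size; a mitochondrial uncoupler was the plate control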
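Fluorescence from anti-PINK1 antibody, together with nuclear and cell stains, was scanned on a laser-scanning cytometer. Before staining, stable-line cells were incubated 24 hours with compounds at 5 concentrations; primary antibody 12 h at 10 degrees C.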
TRPML1 inh: inhibitors of human TRPML1 channel; Q9GZU1; TRPML1-inducible cells, Ca2+ dye fluorescence, FDSS; stronger effect = lower value; inhibition of EC80 agonist-evoked calcium signal; activity change, negative = inhibition, % (test concentration not listed); actives 0.02% (n = 390,000); in the data active means activity change below about -50%; inconclusive means about -30% to -50%; inactive means above about -30%;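 further: stimulus is agonist 54-4 at its EC80 concentration; on the % scale 0 is the no-effect control and ±100 the full control effect; compound concentration not given in the record; the text of the record puts the active cut at -80%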
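Calcium fluorescence in TRPML1-DL cells induced overnight with Tet: a 110 s read after compound pin addition, then a 110 s antagonist read after challenge with 54-4 at 4 uM final (EC80).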
Six1-Eya2 inh: inhibitors of human Six1/Eya2 interaction; Q15475+O00167; AlphaScreen GST-Six1/His-Eya2 binding, biochemical; stronger effect = lower value; control for the full effect not named in the record; activity change, % (concentration not given with the values); actives 0.56% (n = 360,000); AID 651725; in the data active = activity change below about -65%; inconclusive = about -30% to -65%; inactive = above about -30%; further: on the % scale 0 is the no-effect control and ±100 the full control effect
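AlphaScreen with GST-Six1 and His-Eya2 (5X mix: 250 nM and 500 nM), glutathione donor and nickel acceptor beads; buffer 50 mM Tris pH 8.0, 300 mM NaCl, 1 mM TCEP; 1 h at 37 C in the dark.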
CtBP-E1A blk: CtBP/E1A binding inhibition | activity change, % (concentration not given with the values) | AlphaScreen GST-E1A/His-CtBP binding, 1536-well; stronger effect = lower value; control for the full effect not named in the record | actives 0.49% (n = 340,000); in the data active means activity change below about -65%; inconclusive means about -30% to -65%; inactive means above about -30%; further: on the % scale 0 is the no-effect control and ±100 the full control effect
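AlphaScreen with 125 nM GST-E1A and 125 nM His-CtBP (5X stocks) in Tris pH 8.0, 300 mM NaCl, BSA, Tween 20, TCEP. Compounds preincubated 2 h at 37 deg C, then glutathione donor/nickel acceptor beads added for 1 h at 37 deg C in dark.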
Numbers without * were called inactive; ? = inconclusive; · = no result given; [ ] = another dose, or the depositor's remark. Compounds as they come; any-hit rate near 1%.

SMILES	D2 ag	TRPML1 ag	PINK1 modulator	TRPML1 inh	Six1-Eya2 inh	CtBP-E1A blk
COc1ccc(-c2nnc(NC(=O)C3CC3)o2)cc1	0.5	0.7	2.2%	-2.1	-14.6	-2.7
COc1ccc(Cc2[nH]n3c(=O)cc(C(C)C)nc3c2-c2ccccc2)cc1	-1.1	-0.6	?	-2.1	0.8	1.7
CCN1CCN(C(c2ccc(SC)cc2)c2c(O)cc(C)n(CCOC)c2=O)CC1 (centres undefined)	·	-0.1	0.3%	7.3	·	·
CCOC(=O)c1sc(-c2cccc(C(F)(F)F)c2)nc1O	7.0	1.9	1.1%	-3.8	0.1	·
CC(Oc1ccccc1F)C(=O)NNC(=O)c1ccc(-n2cncn2)c([N+](=O)[O-])c1 (centres undefined)	-2.1	-0.1	1.7%	3.8	6.0	0.5
COc1ccc(OCCCC(=O)OCC(=O)c2ccc3c(c2)NC(=O)CO3)cc1	-4.3	0.0	3.8%	2.4	-2.1	4.3
CC1CCC(NC(=O)CCc2cn(Cc3ccccc3Cl)c3ccccc23)CC1 (centres undefined)	·	2.0	1.9%	-3.9	·	·
COc1ccc(C(CNC(=O)c2cccc(S(=O)(=O)NCc3ccccc3)c2)N(C)C)cc1 (centres undefined)	-0.8	1.0	-1.3%	4.4	3.4	8.0
CCOP(=O)(OCC)C(Nc1ccccc1)c1ccccc1C(F)(F)F (centres undefined)	-0.9	1.5	-1.4%	21.2	-0.7	·
O=S(=O)(NC1CCCCC1N1CCCCC1)c1ccccc1 (centres undefined)	3.8	2.1	-2.8%	-4.0	7.6	3.4
COc1cccc(-c2nc(CS(=O)(=O)CC(=O)NCCc3ccccc3)c(C)o2)c1	-0.1	-1.8	2.8%	-6.5	-0.1	-1.2
O=C1CCCC(=O)C1C(c1ccc(Cl)cc1)C1C(=O)CCCC1=O	-0.9	-0.6	1.2%	36.0	0.8	12.3
c1ccc(-c2nc(NCCCn3ccnc3)c3ccccc3n2)cc1	-2.5	0.9	0.3%	-0.3	-21.5	-25.2
CC(=O)N1CCc2cc(S(=O)(=O)NCCCN3CCC(C)CC3)ccc21	1.7	-0.8	-0.3%	2.9	0.6	4.1
Cc1nc2scc(C)n2c(=O)c1S(=O)(=O)N1CCN(c2ccccc2)CC1	1.2	-0.2	3.8%	6.2	-10.6	-3.6
C[C@@H]1CN([C@H](C)CO)C(=O)CCCn2cc(nn2)CO[C@H]1CN(C)S(=O)(=O)c1ccc(-n2cccn2)cc1	-6.6	-0.2	-2.0%	-10.9	-11.0	-10.5
COCCn1c(C)cc(/C=C(\C#N)C(=O)OC(C)C(=O)Nc2ccc(NC(C)=O)cc2)c1C (centres undefined)	-0.2	-0.5	?	14.2	3.6	2.8
COc1cc(SC)ccc1C(=O)N1CCN(c2ccccc2F)CC1	-1.8	1.1	1.4%	-17.9	6.4	3.0
CCOC(=O)c1ccc(NC(=O)CSc2nc(N3CCOCC3)nc(N3CCOCC3)n2)cc1	-1.9	-0.2	4.6%	-9.8	3.6	6.1
O=C1CCCC2=C1C(c1ccc(O)c(O)c1)c1c(ccc3ncccc13)N2 (centres undefined)	3.0	0.8	0.2%	5.5	-19.7	·
Cc1ccc(C)c(NC(=S)NNC(=S)Nc2ccc(C(C)C)cc2)c1	0.3	1.7	14.1µM*	-17.5	-22.2	-1.8
COc1ccc(NC(=O)Cc2nnc(SCC(=O)Nc3ccccc3)n2C)cc1	-4.9	-0.3	0.4%	2.8	0.9	-2.2
Cc1ccc(-n2cccn2)c(CN2CCCC(C(=O)c3sccc3C)C2)c1 (centres undefined)	-3.8	2.1	?	30.2	9.4	7.8
CCc1ccccc1NC(=O)c1ccc(-n2c(C)ccc2C)cc1	-0.9	1.1	0.8%	2.0	-2.5	3.7
COc1ccccc1Oc1cc(C#N)c(C#N)cc1-n1nnc2ccccc21	4.9	0.3	2.1%[38.3 µM]	4.6	2.7	11.5
COc1ccc(NC(=S)Nc2ccc(S(N)(=O)=O)cc2)c(OC)c1	0.4	-0.5	1.8%	-22.7	-2.0	20.1
CC(C)NC(=O)C1(C)CCN1C(=O)C/C=C/c1ccccc1 (centres undefined)	-7.0	0.0	-0.6%	·	-0.4	6.2
COc1ccccc1-c1noc(-c2ccccc2C(=O)NCc2ccco2)n1	-0.8	-0.8	1.5%	0.2	-1.5	0.0
O=C(CCCN1CCC(C(=O)c2ccc(F)cc2)CC1)c1ccc(F)cc1	-3.4	1.4	-1.0%	-4.1	5.0	-10.9
C=CCn1c(SCC(=O)c2ccc(O)c(O)c2)nnc1-c1ccc(C)cc1	1.3	1.4	0.8%	-2.3	3.0	-0.2
CCn1c(S(=O)(=O)O)nc2ccccc21	1.2	·	2.1%	·	1.5	10.4
Cc1nc(NC(=O)c2ccc(-c3cc4ccccc4oc3=O)cc2)ccc1Br	1.2	-0.4	0.2%	27.9	18.2	2.7
COc1cc2oc(=O)cc(CN3CCOCC3)c2cc1Cl	-3.3	-0.4	0.5%	·	-4.8	-0.9
CCc1nnc(NC(=O)CSc2nc3c(cc2C#N)CCC3)s1	-2.7	-0.5	1.9%	2.7	5.8	4.6
Cc1cc2cc(CN(Cc3cccs3)S(=O)(=O)c3ccc4c(c3)OCCO4)c(=O)[nH]c2cc1C	-0.5	0.3	4.8%	37.4	-0.9	-6.3
CC1CCCCC12NC(=O)N(CC(=O)Nc1ccc3c(c1)OCCCO3)C2=O (centres undefined)	-6.9	-0.3	-0.8%	-1.9	1.5	6.2
O=C(Cn1cncn1)N/N=C/c1c2ccccc2cc2ccccc12	-1.8	-1.0	0.7%	-13.5	-4.4	-2.5
CC(C)(C)OC(=O)N1CCC(C(=O)Nc2ccc(C(=O)N3CCCCC3)cc2)CC1	-1.9	1.2	1.6%	-25.5	5.8	-10.7
COc1ccccc1-c1cn[nH]c1-c1ccc(OCC(=O)NN)cc1O	2.4	0.1	1.6%	2.3	-9.0	·
Cn1c(=O)c2[nH]c(N=Nc3ccc(N)cc3N)nc2n(C)c1=O	-4.4	-0.5	0.1%	16.0	-12.6	·
COc1ccc(C(=O)OCC(=O)NC2CCCCCCC2)cc1OC	1.9	2.1	2.4%	-11.9	11.4	-7.4
CC(SC1=NCCS1)C(=O)Nc1nnc(-c2ccc(Cl)cc2)s1 (centres undefined)	-5.0	0.6	16.7%	4.9	-2.0	-13.0
N#C/C(=C\c1ccccc1[N+](=O)[O-])C(=O)NC1CCCCC1	-4.6	6.7	-2.0%	0.1	-2.8	-18.8
COc1ccc(CCN2C(=O)CC(N3CCN(S(=O)(=O)c4ccccc4)CC3)C2=O)cc1OC (centres undefined)	13.5	0.2	0.9%	-7.1	-17.4	·
Cc1nnsc1-c1c(C(=O)N2CCOCC2)c(C)nn1-c1ccccc1	-10.5	-0.3	0.8%	31.2	1.7	-3.1
O=S1(=O)CCN(C2CCCCCCCCCCC2)CC1	-2.1	-0.6	2.6%	27.3	7.1	1.9
O=C(O)CC1(CC(=O)Nc2ccc3ccccc3n2)CCCCC1	-20.3	0.8	1.7%	-3.8	7.2	3.8
O=[N+]([O-])c1cccnc1NCCNc1ncc(C(F)(F)F)cc1Cl	0.6	1.4	0.5%	34.9	-16.9	-0.9
COCCCN(C(=O)c1ccccc1F)c1nc(-c2ccc(OC)cc2)cs1	-7.1	2.4	6.1%	68.7	3.8	-0.8
CC1CCN(C(=O)c2nc[nH]c2C(=O)O[C@H](C)c2ccccc2)CC1	-2.3	-0.8	-0.6%	-8.1	4.8	6.4
Cc1ccc(NC(=O)CCCc2ccccc2)c([N+](=O)[O-])c1	-4.9	2.2	-1.0%	27.6	-23.5	-27.7
O=C1CSC(=Nc2ccc(O)cc2)N1c1ccc(O)cc1	-3.7	0.0	-1.2%	-5.1	0.0	6.7
CCOC(=O)C1(Cc2cccc(OC)c2)CCCN(C(=O)CCc2cccnc2)C1 (centres undefined)	-3.9	0.7	0.9%	2.2	9.2	-6.5
Cc1ccc2c(c1)cc(CN(Cc1ccco1)C(=O)N1CCOCC1)c1nnnn12	-3.1	-0.8	0.5%	14.2	-3.2	-3.8
COc1cc2c(cc1OC)C(C(=O)Nc1cccc(C)n1)C(c1cccnc1)N(C)C2=O (centres undefined)	-1.5	-0.5	0.7%	2.7	6.2	0.4
Nn1c(SCc2cc([N+](=O)[O-])cc3c2OCOC3)nnc1-c1ccccn1	-5.3	-0.2	1.6%	-11.5	-0.9	-3.7
O=C1CC2(CCN(C(=O)c3ccccc3F)CC2)Oc2ccccc21	-3.1	0.4	-3.1%	-6.4	-5.8	7.1
Cc1ccccc1Nc1c(-c2ccccn2)nc2c(C)cccn12	-1.1	3.8	9.5%	6.4	-29.2	?
CCOc1ccc(/C(O)=C2/C(=O)C(=O)N(c3cc(C)on3)C2c2ccc(C(=O)OC)cc2)cc1 (centres undefined)	-2.1	0.6	2.0%	-3.4	1.4	-2.0
CN(c1ccc(OCC(=O)N2CCC(C(N)=O)CC2)cc1)S(=O)(=O)c1cccs1	5.1	0.2	-1.4%	16.7	4.1	4.1

Entries of single compounds, looked up by structure. Order of screens: D2 ag, TRPML1 ag, PINK1 modulator, TRPML1 inh, Six1-Eya2 inh, CtBP-E1A blk
`Cc1ccccc1Nc1c(-c2ccccn2)nc2c(C)cccn12` in the list: -1.1, 3.8, 9.5%, 6.4, -29.2, ?
`O=C(O)CC1(CC(=O)Nc2ccc3ccccc3n2)CCCCC1` in the list: -20.3, 0.8, 1.7%, -3.8, 7.2, 3.8

The results go on:
SMILES	D2 ag	TRPML1 ag	PINK1 modulator	TRPML1 inh	Six1-Eya2 inh	CtBP-E1A blk
COc1cc(/C=N/NC(=O)c2cc(C)oc2C)cc(OC)c1OC	3.5	0.0	1.5%	1.5	5.2	21.9
O=C(COc1ccccc1Br)N1CCN(C(=O)c2ccco2)CC1	0.2	-0.2	1.1%	3.5	3.5	-0.7
CC(=O)c1sc(NC(=O)C2=NN(c3ccccc3)C(=O)CC2)nc1C	-1.9	0.1	3.7%	-1.4	-1.4	-5.8
COc1ccc(CS(=O)(=O)CC(C)(O)c2ccccc2)cc1 (centres undefined)	-4.2	1.2	-0.6%	19.7	5.9	-1.7
CCOc1ccc(S(=O)(=O)N(CC)CC(=O)NCc2ccco2)cc1C	-1.0	-0.1	1.2%	7.7	-12.7	0.0
COc1cc(SC)ccc1C(=O)Nc1cccc(C)n1	2.3	0.7	-0.6%	1.3	0.9	-9.9
Cc1ccc(CN2CCN(C3CSCCSC3)CC2CCO)cc1 (centres undefined)	-1.0	-0.2	1.0%	-4.6	0.6	-1.3

Only CtBP-E1A blk, Six1-Eya2 inh and PINK1 modulator, for some of the entries so far:
canonical_smiles	CtBP-E1A blk	Six1-Eya2 inh	PINK1 modulator
COc1cc(/C=N/NC(=O)c2cc(C)oc2C)cc(OC)c1OC	21.9	5.2	1.5%
O=C(COc1ccccc1Br)N1CCN(C(=O)c2ccco2)CC1	-0.7	3.5	1.1%
CC(=O)c1sc(NC(=O)C2=NN(c3ccccc3)C(=O)CC2)nc1C	-5.8	-1.4	3.7%
COc1ccc(CS(=O)(=O)CC(C)(O)c2ccccc2)cc1 (centres undefined)	-1.7	5.9	-0.6%
CCOc1ccc(S(=O)(=O)N(CC)CC(=O)NCc2ccco2)cc1C	0.0	-12.7	1.2%
